# High-throughput results (PubChem BioAssay)
# gsp agonist: gsp mutant agonism; Potency, µM (top dose mostly 76.9 µM), for inactives: at the highest dose activation (cAMP increase), most hits filed as activators; gsp mutant cells, cAMP HTRF, 30 min; control for the full effect not named in the record; 340,000 compounds, 0.13% hits; active = well fitted activation curve with a large enough effect; inconclusive = small, poorly fitted or top-dose-only effect, or another doubt; inactive = no such curve, though single readings can be large or run the other way; cell line not stated here;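 also: phosphodiesterase inhibitor Ro 20-1724 added with compounds to block cAMP breakdown; potency is read from the fitted curve at half-maximal effect; nearly all actives have a fitted effect of over 60% in size; about a fifth of the inactives were tested at one dose only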
#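 Cells stably selected in G418 were plated at 2000/well, grown 16-24 hr, then given compounds in DMSO with the PDE inhibitor […] (300 uM solution added) for 30 min at 37C; cAMP was read by HTRF.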
# gsp antag: gsp mutant antagonism | Potency, µM (top dose mostly 76.9 µM), inactives show at the highest dose activity change, negative = inhibition, usual class: inhibitors | 340,000 compounds, 0.4% hits | gsp-mutant cells, cAMP HTRF, 30 min; control for the full effect not named in the record; active = falling curve of any shape with a large fitted effect; inconclusive = falling curve, mostly with a smaller effect; inactive = flat or rising curve; cell line not stated here;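 also: intracellular cAMP measured with PDE inhibitor Ro 20-1724 present during compound exposure; potency is read from the fitted curve at half-maximal effect; % is scaled to controls: 0 for no effect and ±100 for the full control effect; nearly all actives have a fitted effect of over 65% in size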
#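 HTRF cAMP read-out (cAMP-d2 plus anti-cAMP antibody-K in lysis buffer, 30 min RT). Before lysis, cells are exposed to compounds with […] for 30 min at 37C in DPBS containing Ca/Mg, BSA and Tween 20.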
# ClpP mod: qHTS Assay for Activators of ClpP | ATP-dependent Clp protease proteolytic subunit (Bacillus subtilis (strain 168)), P80244 | purified B. subtilis ClpP, FRET peptide cleavage, 20 min | Potency, µM (doses to about 57.5 µM), inactives show at the highest dose activity change, negative = active | 340,000 compounds, 1.9% hits; active = well fitted falling curve with a large enough effect; inconclusive = small, poorly fitted or top-dose-only effect; inactive = no such curve, though single readings can be large or run the other way; also: potency is read from the fitted curve at half-maximal effect; the source files actives as falling curves though it sought activators and does not explain the sign; nearly all actives have a fitted effect of over 65% in size; many hits overshoot -100%
# Target sequence (P80244 whole entry, looked up): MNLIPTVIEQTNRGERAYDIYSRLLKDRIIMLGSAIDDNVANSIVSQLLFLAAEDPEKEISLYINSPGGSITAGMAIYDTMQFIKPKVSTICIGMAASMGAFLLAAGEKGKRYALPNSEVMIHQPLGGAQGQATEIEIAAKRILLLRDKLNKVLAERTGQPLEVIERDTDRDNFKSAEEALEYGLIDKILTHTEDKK
#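 Purified B. subtilis ClpP, 10 microg/mL final in Tris/HCl pH8 with KCl, BSA, glycerol and Tween-20, cleaved an Abz/nitrotyrosine-quenched decapeptide. Fluorescence (ex 320, em 430) was read at 0 and 20 min at room temperature. Delta was normalized to 5.8 microM ADEP and DMSO/no-enzyme controls.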
# TRPV1 potentiator: potentiators of human vanilloid receptor 1 (TRPV1) | TRPV1-expressing cells, Fluo-8 calcium influx, capsaicin EC20 potentiation; host cell line not named in the record; control for the full effect not named in the record | 320,000 compounds, 0.02% hits | Q8NER1 | potentiation, % at 8.33 µM; active means potentiation above 80%; inconclusive means 30% to 80%; inactive means below 30%; also: 0% is about no effect
# Target sequence (Q8NER1 whole entry, looked up): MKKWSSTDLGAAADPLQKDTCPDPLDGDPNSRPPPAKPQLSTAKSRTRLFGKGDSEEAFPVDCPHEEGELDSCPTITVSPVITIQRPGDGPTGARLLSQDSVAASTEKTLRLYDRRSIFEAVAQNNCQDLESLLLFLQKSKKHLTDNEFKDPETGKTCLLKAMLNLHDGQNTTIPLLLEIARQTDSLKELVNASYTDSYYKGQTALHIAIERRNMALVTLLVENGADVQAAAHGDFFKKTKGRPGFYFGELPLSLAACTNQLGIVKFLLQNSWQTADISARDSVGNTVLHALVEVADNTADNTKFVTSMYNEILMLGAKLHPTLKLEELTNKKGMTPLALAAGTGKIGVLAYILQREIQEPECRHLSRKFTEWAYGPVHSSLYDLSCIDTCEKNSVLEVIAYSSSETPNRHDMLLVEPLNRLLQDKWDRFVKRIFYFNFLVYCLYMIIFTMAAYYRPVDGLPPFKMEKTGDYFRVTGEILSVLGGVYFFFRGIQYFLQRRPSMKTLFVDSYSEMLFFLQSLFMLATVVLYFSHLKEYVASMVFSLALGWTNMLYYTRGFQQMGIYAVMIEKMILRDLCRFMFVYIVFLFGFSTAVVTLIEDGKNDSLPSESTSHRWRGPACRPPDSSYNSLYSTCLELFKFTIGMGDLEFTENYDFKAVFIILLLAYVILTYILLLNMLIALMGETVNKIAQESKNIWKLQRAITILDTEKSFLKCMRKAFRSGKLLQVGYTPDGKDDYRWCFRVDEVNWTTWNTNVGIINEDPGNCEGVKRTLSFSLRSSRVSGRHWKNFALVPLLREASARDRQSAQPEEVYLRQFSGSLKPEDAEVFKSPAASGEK
#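 TRPV1-expressing cells were cultured overnight at 35.5C and loaded with Fluo-8 calcium dye for 40 to 90 min at room temperature. After a 10 s baseline, compound was added and calcium influx was read kinetically for 3 min (ex 480/em 520 nm).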
# CtBP-E1A blk: blocks the CtBP interaction with E1A; AlphaScreen GST-E1A/His-CtBP binding, 1536-well; active compounds read low; control for the full effect not named in the record; AID 651724; activity change, % (concentration not given with the values); 340,000 compounds, 0.49% hits; in the data active means activity change below about -65%; inconclusive means about -30% to -65%; inactive means above about -30%; also: % is scaled to controls: 0 for no effect and ±100 for the full control effect
#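 Protein mix (5X: 125 nM each GST-E1A, His-CtBP) was incubated with pinned compound 2 h at 37 deg C in dark, in 50 mM Tris pH 8.0 buffer with 300 mM NaCl. Glutathione donor and nickel acceptor beads followed; AlphaScreen signal read after 1 h.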
# Sfp PPTase inh: blocks B. subtilis Sfp PPTase activity; Q9F4F7; 310,000 compounds, 3.5% hits; AID 1490; Biochemical Sfp PPTase activity, qHTS; Potency, µM, for the others: max response, negative = inhibition, usual class: inhibitors; active = well fitted inhibition curve with a large enough effect; inconclusive = small, poorly fitted or top-dose-only effect, or another doubt; inactive = no such curve, though single readings can be large or run the other way;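 also: the enzyme is Sfp with the accession as filed and its product quenches rhodamine fluorescence; potency is read from the fitted curve at half-maximal effect; 0% = enzyme reaction without inhibitor and -100% = no enzyme wells; top concentration of the series not given in the record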
#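 Sfp 15 nM + cpd, 15 min RT; start w/ rhodamine-CoA 5 uM, BHQ-2-YbbR 12.5 uM (final); 50 mM Hepes pH 7.6, 10 mM MgCl2, 0.01% NP-40, 0.01% BSA; read 525/598 nm at 0 and 30 min.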
# Menin MLL FP FL: inhibitors of human menin-MLL interaction, wild-type MLL peptide | Fluorescence polarization, fluorescein-MLL peptide displacement from menin | 290,000 tested, under 10 active | AID 1766 | FP activity change, % at 61.4 µM; inconclusive = falling polarisation curve, or a change in total fluorescence; inactive = total fluorescence flat and polarisation flat or rising; no compound was filed as active; the % refers to the polarisation; negative = inhibition;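 also: % of control where 0% means no effect; inhibitors lower the polarisation; unlabelled MLL peptide was the positive control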
# * marks the source's active call; other numbers are inactive results; ? = inconclusive; · = not tested or not shown; [ ] = remark or other dose.
# Order of results: TRPV1 potentiator	gsp agonist	ClpP mod	CtBP-E1A blk	Sfp PPTase inh	gsp antag	Menin MLL FP FL
- COC1(NS(=O)(=O)c2ccc(Br)cc2)C(C)=CC(=O)C=C1C
    -23	-33%	·	5	4%	-2%	0.6
- Cc1cc(=O)[nH]c(N=N/C(=N/Nc2ccc(O)cc2)c2ccccc2)n1
    -31	9%	-5.0%	-2	10%	-15%	2.3
- CCCOc1cccc(C(=O)NCCCNC(=O)c2ccccn2)c1
    -7	3%	-2.7%	4	0%	6%	-1.0
- Cc1cc(OC(F)F)ccc1NC(=S)NCCc1ccccc1
    -26	12%[15.4 µM]	2.8%	0	7%	13%	-2.9
- Cc1ccc(-n2c(C)nnc2SCC(=O)Nc2ccccc2)cc1
    20	1%	0.7%	5	-3%	4%	0.5
- O=C(Nc1cc(S(=O)(=O)N2CCOCC2)ccc1N1CCOCC1)c1ccccc1F
    -9	1%	0.2%	4	·	-13%	·
- CC(C(=O)Nc1ccc(F)c(F)c1F)N(C)Cc1cccs1 (stereo not given)
    -23	-26%	0.1%	14	0%	0%	·
- COc1ccc(Cl)cc1C(=O)NNC(=O)COC(=O)c1ccc(Br)o1
    ·	-6%[15.4 µM]	1.5%	9	·	-28%	·
- COc1cccc(C(C(=O)NC2CCCC2)N(Cc2ccco2)C(=O)c2ccco2)c1OC (stereo not given)
    -5	-17%	3.3%	26	13%	-4%	-1.3
- COc1cc(C2C3=C(COC3=O)Oc3cc4c(cc32)OCO4)cc(OC)c1O (stereo not given)
    ·	2%	7.0%	-1	·	9%	·
- COc1ccccc1N1CCN(S(=O)(=O)c2cccs2)CC1
    -21	1%	-1.4%	1	10%	-1%	0.1
- CCO[C@@H]1OC(C(N)=O)=C[C@H](c2cn(C(C)=O)c3ccccc23)[C@H]1CCCO
    -9	6%	-2.1%	3	21%	1%	-3.2
- CN1c2cccc3cccc(c23)N(C)C1(C)C
    ·	-5%[15.4 µM]	0.1%	-17	-23%	-10%	5.0
- Cc1ccc(-c2[nH]nc3c2C(c2ccsc2)C(C#N)=C(N)O3)cc1 (stereo not given)
    14	-11%	0.2%	-3	8%	-8%	1.7
- Cc1ccc(Cl)cc1NC(=O)CC1NCCNC1=O (stereo not given)
    2	-32%[inhibitor]	-1.6%	-1	16%	6%	-0.8
- COc1ccc(C(CNC(=O)CNC(=O)c2ccc(F)cc2)N2CCCC2)cc1 (stereo not given)
    -11	-12%	-0.1%	11	·	11%	·
- COc1ccc(/C=N/N=C2/NC(=O)C(CC(=O)O)S2)cc1OCc1ccc(Cl)cc1 (stereo not given)
    13	-1%	-1.5%	-11	-3%	7%	2.3
- CS(=O)(=O)NCCOc1ccc(S(=O)(=O)N2CCCc3ccccc32)cc1
    -3	18%	-0.1%	-5	?	-7%	1.8
- C[C@H]1CN([C@@H](C)CO)C(=O)Cc2cc(NS(=O)(=O)c3cn(C)cn3)ccc2O[C@@H]1CN(C)C(=O)Nc1ccc(F)cc1
    ·	·	1.3%	3	·	8%	·
- COc1cc(OC)c(C2CC(=O)N3CN(c4ccccc4)CSC3=C2C#N)cc1OC (stereo not given)
    4	11%	-1.5%	-1	3.2µM*	-13%	0.1
- CC(C)CC(C(=O)NCc1ccccn1)N1C(=O)c2ccccc2C1=O (stereo not given)
    0	-16%	-0.5%	-1	9%	-3%[15.4 µM]	-1.1
- COc1ccccc1-c1nc(SCc2ccccn2)n[nH]1
    -10	-4%	-1.3%	2	9%	0%	1.9
- O=C(CNS(=O)(=O)c1cccs1)NCc1ccc(F)cc1
    22	-33%	·	3	23%	9%	-1.1
- CCN(C(=O)c1cc2c(=O)n3ccccc3nc2n1C)C1CCCCC1
    -26	?	4.5%	-7	8%	25%	·
- O=C(CN1C(=O)c2ccccc2C1=O)Nc1ccccc1N1CCOCC1
    -10	12%	·	-18	15%	6%	-0.8
- CC(C)(C)C(=O)NNC(=O)c1cnccn1
    -3	11%	0.9%	-9	79µM*	11%	1.2
- Nc1nonc1-c1noc(CCCOc2ccc(Cl)cc2Cl)n1
    7	-1%	4.0%	10	-4%	?	-0.4
- Cc1ccc(C)c(-c2csc(NC(=O)c3c(C)noc3C)n2)c1
    -1	13%	-4.6%	-21	·	-17%	·
- COc1ccc([C@@H]2[C@@H]3C(=O)N(C(C)(C)C)C(=O)[C@@H]3[C@]3(C)C(=O)N(c4cccc(C)c4)C(=O)N23)cc1
    -7	·	0.3%	6	17%	?	4.9
- Cc1cc(N)n(-c2ccccc2)n1
    -9	-37%	-3.4%	0	13%	18%	-0.3

# Profiles as entered above. Order of values: TRPV1 potentiator	gsp agonist	ClpP mod	CtBP-E1A blk	Sfp PPTase inh	gsp antag	Menin MLL FP FL
# Entry for COc1cccc(C(C(=O)NC2CCCC2)N(Cc2ccco2)C(=O)c2ccco2)c1OC (stereo not given) = -5	-17%	3.3%	26	13%	-4%	-1.3
# Entry for COc1ccc([C@@H]2[C@@H]3C(=O)N(C(C)(C)C)C(=O)[C@@H]3[C@]3(C)C(=O)N(c4cccc(C)c4)C(=O)N23)cc1 = -7	·	0.3%	6	17%	?	4.9
# Entry for COC1(NS(=O)(=O)c2ccc(Br)cc2)C(C)=CC(=O)C=C1C = -23	-33%	·	5	4%	-2%	0.6
# Entry for O=C(Nc1cc(S(=O)(=O)N2CCOCC2)ccc1N1CCOCC1)c1ccccc1F = -9	1%	0.2%	4	·	-13%	·

# The results go on:
# Order of results: TRPV1 potentiator	gsp agonist	ClpP mod	CtBP-E1A blk	Sfp PPTase inh	gsp antag	Menin MLL FP FL
- COC(CNC(=O)C1CCCN1C(=O)OCc1ccccc1)OC (stereo not given)
    -33	0%	·	0	2%	6%	1.1
- CCn1cc(C(=O)NCc2ccc(OC)cc2)c(=O)c2ccc(C)nc21
    14	6%[15.4 µM]	-2.5%	5	-9%	2%	4.2
- c1ccc(COCCCn2cc(-c3ccccc3)nn2)cc1
    -39	·	0.8%	7	3%	4%	-2.8
- CCOc1ccc(/C=N/NC(=O)c2ccc(Cn3cc([N+](=O)[O-])cn3)o2)cc1
    -1	-63%[inhibitor]	-3.3%	-10	-12%	-9%	4.5
- Cc1cc(OC(C)C(=O)NCCCN2CCOCC2)c2c(C)cc(=O)oc2c1 (stereo not given)
    ?	13%	3.9%	·	16%	-13%	·
- COC(=O)[C@H](C)NC(=O)Nc1cccc(C)c1
    -1	-14%	4.4%	0	12%	5%	-3.1
- Cc1ccccc1-n1c(=O)cc(N2CCC3(CC2)OCCO3)[nH]c1=O
    -14	-24%	0.3%	4	-7%	5%	2.7
- CCN(CC)S(=O)(=O)c1ccc(C)c(NC(=S)NNC(=O)C2CC2)c1
    -3	23%	25µM*	8	6%	12%	-4.4
- CCCCC(CC)CNC(=O)/C=C/c1ccc(F)cc1 (stereo not given)
    -11	·	·	·	2%	·	1.4
- CC(C)(C)[C@H]1COC(=O)CC/C=C\C[C@@H](CC(=O)N[C@H](CO)Cc2ccccc2)C(=O)N1
    ·	3%	0.4%	0	·	10%	·
- O=c1cc(CSc2nnc(-c3cccs3)n2Cc2ccccc2)nc2sc3ccccc3n12
    5	-17%	-2.1%	-8	-13%	-37%	5.8
- Cc1nc2c(-c3ccccc3)c(C)nn2c(C)c1CCC(=O)O
    -1	-20%	-1.4%	4	14%	-23%	2.9
- CC1CCC(NCCNC(=O)c2ccco2)CC1 (stereo not given)
    -1	-18%[15.4 µM]	·	-9	-1%	·	2.8
- Cc1ccc(C(=O)NCCNc2ccc([N+](=O)[O-])cc2C(F)(F)F)cc1
    0	-2%	2.1%	14	27%	-32%	6.2
- CCOC(=O)c1ccccc1NC(=O)Cn1c(-c2nonc2N)nc2ccccc21
    -7	22%	-2.0%	3	28µM*	5%	9.2
- CC(C)c1ccc(NC(=O)C(c2ccccc2)N2CCN(C=O)CC2)cc1 (stereo not given)
    -14	-46%[inhibitor]	4.7%	3	-8%	-4%	-6.2
- Cc1cc(NC(=O)CCN2C(=O)/C(=C\c3ccccc3Cl)SC2=S)no1
    ?	0%	·	0	50µM*	-14%	0.5
- Cc1ncsc1CCSc1nc2ccccc2c(=O)n1C
    -1	1%	-2.9%	-15	10%	?	1.5
- CCCCOCCCNC(=O)c1cccc(OC)c1
    -1	-29%	-2.0%	3	6%	9%	1.1
- CC1CCCC(NC(=O)CSc2nnc(-c3cccnc3)o2)C1C (stereo not given)
    ·	?	2.9%	3	·	·	·
- CC(=O)NC1=NN(C(C)=O)C(C)(c2ccccc2)S1 (stereo not given)
    -2	15%	-1.8%	-3	9%	-7%	1.3
- O=C(O)c1ccc(N2C(=O)CC(Cc3ccccc3)C2=O)cc1 (stereo not given)
    3	-51%[inhibitor]	2.4%	1	9%	-3%	1.3
- Cc1ccc(NC(=O)CSc2ncc(-c3ccccc3)n2C(=O)c2ccccc2)cc1
    ·	-78%[inhibitor]	-13%	-4	-2%	-7%	8.2
- CC(C)=CCCC1(C)C=Cc2c(ccc3c2[nH]c2cc(O)c(C)cc23)O1 (stereo not given)
    1	·	-0.2%	-9	15%	-18%	-0.6
- CCC1CCCCN1CCCNC(=O)C1CCC(Cn2c(=O)[nH]c3ccccc3c2=O)CC1 (stereo not given)
    11	-15%	?	-4	6%	12%	0.2
- CC(CNc1ccccc1O)C(=O)O (stereo not given)
    -3	-4%	12%	1	50µM*	-12%	0.3
- O=C(CC1C(=O)NCCN1Cc1ccc(-c2ccccc2)cc1)NCCOc1cccnc1 (stereo not given)
    -2	?	-2.2%	·	-14%	-9%	-8.8

# Not a hit list. About 5.3% of those tested had a hit in this group.
